TRPV1 PAM: enhances activation of the human vanilloid receptor TRPV1; Q8NER1; TRPV1-expressing cells, Fluo-8 calcium influx, capsaicin EC20 potentiation; host cell line not named in the record; control for the full effect not named in the record; potentiation, % at 8.33 µM; 0.02% of 320,000 active; AID 540277; active means potentiation above 80%; inconclusive means 30% to 80%; inactive means below 30%; further: 0% is about no effect
Target sequence (Q8NER1 whole entry, looked up): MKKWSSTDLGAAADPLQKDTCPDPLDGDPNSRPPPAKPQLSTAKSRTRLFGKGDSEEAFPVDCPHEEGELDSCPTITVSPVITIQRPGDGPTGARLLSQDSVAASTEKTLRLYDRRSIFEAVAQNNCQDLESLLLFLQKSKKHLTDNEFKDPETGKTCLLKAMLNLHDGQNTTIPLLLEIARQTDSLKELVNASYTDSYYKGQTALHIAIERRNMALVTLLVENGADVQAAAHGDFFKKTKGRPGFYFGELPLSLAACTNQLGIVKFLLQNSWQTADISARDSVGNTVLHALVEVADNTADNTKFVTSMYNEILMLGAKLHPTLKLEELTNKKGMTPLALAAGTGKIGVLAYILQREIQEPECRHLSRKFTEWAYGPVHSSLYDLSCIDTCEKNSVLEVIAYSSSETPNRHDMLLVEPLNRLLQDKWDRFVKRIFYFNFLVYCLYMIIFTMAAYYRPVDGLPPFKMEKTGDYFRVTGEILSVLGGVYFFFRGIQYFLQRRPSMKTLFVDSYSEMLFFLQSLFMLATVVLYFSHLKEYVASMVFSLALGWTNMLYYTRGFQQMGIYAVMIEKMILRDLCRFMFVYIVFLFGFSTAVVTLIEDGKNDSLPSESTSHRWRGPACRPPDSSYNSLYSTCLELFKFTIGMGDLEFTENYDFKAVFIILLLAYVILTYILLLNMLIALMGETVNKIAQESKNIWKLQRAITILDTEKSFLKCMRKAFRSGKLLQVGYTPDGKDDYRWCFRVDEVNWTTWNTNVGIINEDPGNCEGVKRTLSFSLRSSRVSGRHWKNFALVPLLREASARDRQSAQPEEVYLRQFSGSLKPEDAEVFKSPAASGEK
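Cells expressing TRPV1 were dye-loaded with Fluo-8 and read kinetically: 10 s baseline, 3 min after compound (agonist portion), then 2 min after EC20 capsaicin (allosteric enhancer portion). Calcium-bound dye fluorescence at 480/520 nm.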
Sfp PPTase inh: blocks B. subtilis Sfp PPTase activity | 3.5% of 310,000 active | Potency, µM, for inactives: max response, negative = inhibition, hits mostly inhibitors | Q9F4F7 | Biochemical Sfp PPTase activity, qHTS; active means well fitted inhibition curve with a large enough effect; inconclusive means small, poorly fitted or top-dose-only effect, or another doubt; inactive means no such curve, though single readings can be large or run the other way;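 further: the enzyme is Sfp with the accession as filed and its product quenches rhodamine fluorescence; potency means the concentration at half of the fitted maximal effect; 0% = enzyme reaction without inhibitor and -100% = no enzyme wells; top concentration of the series not given in the record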
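With Hepes-Na pH 7.6 buffer containing 10 mM MgCl2, Sfp (15 nM) modified BHQ-2-YbbR (12.5 uM) using rhodamine-CoA (5 uM). Two reads 30 minutes apart at 525/598 nm yielded each well's rate.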
Menin-MLL FL inh: inhibitors of human menin-MLL interaction, wild-type MLL peptide; Fluorescence polarization, fluorescein-MLL peptide displacement from menin; FP activity change, % at 61.4 µM; 290,000 tested, under 10 active; inconclusive = falling polarisation curve, or a change in total fluorescence; inactive = total fluorescence flat and polarisation flat or rising; no compound was filed as active; the % refers to the polarisation; negative = inhibition;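 further: % of control where 0% means no effect; inhibitors lower the polarisation; unlabelled MLL peptide was the positive control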
ClpP mod: qHTS Assay for Activators of ClpP; AID 651965, 2013; ATP-dependent Clp protease proteolytic subunit (Bacillus subtilis (strain 168)), P80244; 1.9% of 340,000 active; Potency, µM (top dose mostly 57.5 µM), inactives show at the top dose activity change, negative = active; purified B. subtilis ClpP, FRET peptide cleavage, 20 min; active = well fitted falling curve with a large enough effect; inconclusive = small, poorly fitted or top-dose-only effect; inactive = no such curve, though single readings can be large or run the other way; further: potency means the concentration at half of the fitted maximal effect; the source files actives as falling curves though it sought activators and does not explain the sign; nearly all actives have a fitted effect of over 65% in size; many hits overshoot -100%
Target sequence (P80244 whole entry, looked up): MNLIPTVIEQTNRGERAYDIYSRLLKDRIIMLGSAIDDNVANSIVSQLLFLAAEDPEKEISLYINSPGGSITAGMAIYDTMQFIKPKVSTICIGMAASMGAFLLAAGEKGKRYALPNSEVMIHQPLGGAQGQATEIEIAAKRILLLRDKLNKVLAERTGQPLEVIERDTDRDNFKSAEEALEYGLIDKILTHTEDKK
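Purified B. subtilis ClpP, 10 microg/mL final in Tris/HCl pH8 with KCl, BSA, glycerol and Tween-20, cleaved an Abz/nitrotyrosine-quenched decapeptide. Fluorescence (ex 320, em 430) was read at 0 and 20 min at room temperature. Delta was normalized to 5.8 microM ADEP and DMSO/no-enzyme controls.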
TRPML1 agonist: agonists of human TRPML1 channel; TRPML1-expressing cells, Ca2+ dye fluorescence, FDSS; host cell line not named in the record; reference of the full effect not given here; activation, % (no concentration beside the values); 0.12% of 410,000 active; in the data active = activation above about 50%; inconclusive = about 30% to 50%; inactive = below about 30%; further: 0% is about no effect; the text of the record puts the active cut at 80%
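Tet-induced TRPML1-DL cells, 1,500 per well, cultured overnight, were loaded with a no-wash Ca2+ dye for 45–90 min. Calcium fluorescence was recorded on the FDSS for 110 s after compound addition, before the EC80 agonist (4 uM 54-4) was added.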
TRPML1 blocker: blocks the human TRPML1 channel; Q9GZU1; TRPML1-inducible cells, Ca2+ dye fluorescence, FDSS; stronger effect = lower value; inhibition of EC80 agonist-evoked calcium signal; activity change, negative = inhibition, % (no concentration beside the values); 0.02% of 390,000 active; in the data active means activity change below about -50%; inconclusive means about -30% to -50%; inactive means above about -30%;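 further: stimulus is agonist 54-4 at its EC80 concentration; on the % scale 0 is the no-effect control and ±100 the full control effect; compound concentration not given in the record; the text of the record puts the active cut at -80%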
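TRPML1-DL cells, Tet-induced overnight (~16 h, 37 °C) at 1,500 cells/well, were loaded with Ca8 no-wash dye plus quencher for 45-90 min at room temperature. Compounds were pinned during FDSS kinetic reading; agonist 54-4 at EC80 (4 uM final) then added.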
PINK1 modulator: changes PINK1 expression. PINK1 immunofluorescence, high-content cytometry, 24 h. Potency, µM (series often up to 76.6 µM), for the others: top-dose activation (PINK1 increase), most hits filed as activators. 0.2% of 410,000 active. AID 624263; active = well fitted activation curve with a large enough effect; inconclusive = small, poorly fitted or top-dose-only effect; inactive = flat fitted curve, though single readings scatter; cell line not stated here;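 further: potency means the concentration at half of the fitted maximal effect; % of control where 0% means no effect; nearly all actives have a fitted effect of over 65% in size; a mitochondrial uncoupler was the plate control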
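PINK1 protein level read as immunofluorescence by microplate cytometer in a fixed, stained stable cell line after 24 h exposure to five compound concentrations, with CCCP as control.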
An asterisk follows results filed as active; ? = inconclusive; nt = no result given; [ ] = another dose, or the depositor's remark.

1. O=C(c1cccc(S(=O)(=O)N2CCOCC2)c1)N1CCCc2ccccc21
2. O=C(OCc1ccccc1)N1CCCCC1c1c(Cl)cccc1Br (configuration not stated)
3. CC(C)c1ccc(NC(=O)Nc2nnc([C@H]3C[C@H](O)[C@@H](CO)O3)s2)cc1
4. S=c1[nH]nc([C@@H]2C[C@H]2c2ccccc2)n1-c1ccccc1Cl
5. CCN(CCCNC(=O)c1nn(-c2ccc(OC)c(Cl)c2)c(=O)c2c1c1ccccc1n2C)c1cccc(C)c1
6. COc1ccccc1C(c1nnnn1C(C)(C)C)N1CCCc2ccccc21 (configuration not stated)
7. CCCCC(NC(=O)c1ccccc1)C(=O)OCC(=O)N1c2ccccc2Sc2ccccc21 (configuration not stated)
8. COc1ccccc1C(=O)N1CCN(c2cccc(Cl)c2)CC1
assay / entry,1,2,3,4,5,6,7,8
TRPV1 PAM,5.8,nt,nt,6.6,nt,-22.5,nt,-9.9
Sfp PPTase inh,11.1%,nt,nt,24.5%,nt,-4.2%,7.8%,-13.9%
Menin-MLL FL inh,2.8,nt,nt,0.5,nt,0.7,4.5,3.7
ClpP mod,1.8%,-1.2%,2.6%,-0.1%,4.0%,-1.6%,2.2%,0.0%
TRPML1 agonist,-0.7,?,-0.7,-1.1,0.3,0.9,2.1,-0.3
TRPML1 blocker,1.5,nt,nt,30.2,-9.4,-8.4,-14.7,3.8
PINK1 modulator,-1.4%,?,-0.7%,-1.0%,0.2%,1.0%,0.7%,3.3%

9. O=[N+]([O-])c1cc(-c2nc(-c3ccccc3)no2)ccc1NC1CCCC1
10. O=C(CN1C(=O)COc2ccc(S(=O)(=O)N3CCOCC3)cc21)Nc1cccc(Cl)c1
11. N#Cc1ccc(OCC(=O)NCCc2ccc(S(N)(=O)=O)cc2)cc1
12. COc1ccc(N2CCN(S(=O)(=O)c3c(C)[nH]c(C)c3C(=O)N3CCCCC3)CC2)cc1
13. Cc1ccc(C(C)(C)NC(=O)C2CCC(=O)N(CC3CCCCC3)C2)cc1 (configuration not stated)
14. CCOC(=O)Cn1cc(Cn2c3ccccc3c(=O)n2C(C)C)nn1
15. Cc1ccc(-n2nc3c(=O)n(CC(=O)NC(C)C)nc(C)c3c2C)cc1
16. CCC(C)NC(=O)CN1C(=O)NC2(CCOc3ccccc32)C1=O (configuration not stated)
assay / entry,9,10,11,12,13,14,15,16
TRPV1 PAM,nt,6.6,-1.6,-9.4,-3.4,nt,nt,5.3
Sfp PPTase inh,nt,14.8%,6.0%,7.8%,7.2%,nt,nt,31.5%[activator]
Menin-MLL FL inh,nt,nt,-0.2,-7.5,-2.2,nt,nt,2.9
ClpP mod,-1.9%,-2.5%,-0.8%,-1.9%,-0.3%,5.0%,0.3%,nt
TRPML1 agonist,-0.1,3.0,0.3,-0.3,0.1,-0.1,-0.3,0.3
TRPML1 blocker,-9.3,45.1,-16.9,-12.8,0.9,nt,-17.9,-18.1
PINK1 modulator,-0.8%,-1.2%,-2.1%,-0.8%,0.4%,-0.3%,-0.7%,-0.2%

An excerpt of these results, as labelled records:
[10] O=C(CN1C(=O)COc2ccc(S(=O)(=O)N3CCOCC3)cc21)Nc1cccc(Cl)c1
  TRPV1 PAM: 6.6; Sfp PPTase inh: 14.8%; Menin-MLL FL inh: nt; ClpP mod: -2.5%; TRPML1 agonist: 3.0; TRPML1 blocker: 45.1; PINK1 modulator: -1.2%

[9] O=[N+]([O-])c1cc(-c2nc(-c3ccccc3)no2)ccc1NC1CCCC1
  TRPV1 PAM: nt; Sfp PPTase inh: nt; Menin-MLL FL inh: nt; ClpP mod: -1.9%; TRPML1 agonist: -0.1; TRPML1 blocker: -9.3; PINK1 modulator: -0.8%

Other records follow.
17. COC(=O)C1(CCSC)NC(c2ccc(O)cc2)C2C(=O)N(c3ccc4c(c3)OCCO4)C(=O)C21 (configuration not stated)
18. CCOc1ccc(Nc2oc(/C=C/c3ccc(F)cc3)nc2C#N)cc1
19. CC(C)CN(C(=O)COC(=O)CNC(=O)c1sc2ccccc2c1Cl)C1CCS(=O)(=O)C1 (configuration not stated)
20. Cc1ccc(-n2ncc3c(N4CCN(C)CC4)ncnc32)cc1C
21. O=C1CC(C(=O)Nc2ccccc2)S/C(=N\NC(=O)c2ccccc2Cl)N1 (configuration not stated)
22. COc1cccc(-c2cnc3c(NC=O)cc(-c4cc(OC)c(OC)c(OC)c4)cn23)c1
23. O=C(c1cc2c(=O)[nH]c3ccccc3c2s1)N1CCN(c2ccc(F)cc2)CC1
24. FC(F)(F)Sc1ccc(NC(=S)NCc2ccccc2)cc1
assay / entry,17,18,19,20,21,22,23,24
TRPV1 PAM,8.4,nt,?,nt,-1.1,nt,nt,-23.2
Sfp PPTase inh,5.6%,nt,nt,nt,21.7%,nt,nt,22.2%
Menin-MLL FL inh,5.1,nt,nt,nt,-0.2,nt,nt,-0.4
ClpP mod,-4.3%,4.6%,0.8%,-0.6%,-1.6%,?,-9.1%,0.4%
TRPML1 agonist,1.5,-1.0,-0.5,-0.2,1.9,-1.0,2.8,-0.4
TRPML1 blocker,-9.4,-18.6,-0.9,24.6,-7.0,nt,0.9,32.0
PINK1 modulator,1.6%,3.5%,-0.3%,0.0%,0.8%,1.8%,1.7%,?

25. CCOc1ccc(NC(=O)CN(C)Cc2ccc3c(c2)OCO3)cc1S(=O)(=O)N1CCCC1
26. FC(F)Oc1ccc(-c2csc(Cc3nnc4n3CCCCC4)n2)cc1
27. Cc1cc(=O)[nH]c(N/N=C/c2ccc(Cl)c([N+](=O)[O-])c2)n1
28. Cc1nc(NS(=O)(=O)c2cccc([N+](=O)[O-])c2)sc1C(C)(C)C
29. COc1ccc(NC(=O)c2csnn2)cc1
30. CCOc1cc(CN2CCCC(N3CCN(c4ccc(F)cc4)CC3)C2)ccc1OC (configuration not stated)
31. COc1ccc(NC(=O)C2CCN(C(=O)c3cccs3)CC2)cc1OC
32. CC(=O)c1c(C)[nH]c(C(=O)Nc2ccc(C)c(S(=O)(=O)Nc3ccc(C)cc3C)c2)c1C
assay / entry,25,26,27,28,29,30,31,32
TRPV1 PAM,-12.8,4.6,8.7,-9.7,nt,-22.9,5.4,-4.2
Sfp PPTase inh,nt,-15.5%,-7.3%,5.1%,nt,3.7%,5.6%,15.1%
Menin-MLL FL inh,nt,3.0,-9.9,2.8,nt,-3.0,0.3,7.4
ClpP mod,-2.3%,-2.3%,nt,-1.0%,-3.1%,1.8%,0.1%,-5.5%
TRPML1 agonist,1.7,-0.6,-1.0,-1.4,0.3,0.5,0.6,nt
TRPML1 blocker,7.0,-22.2,-10.4,12.9,-5.9,?,-2.4,nt
PINK1 modulator,1.7%,-0.9%,10.6%,1.7%,-0.2%,-0.6%,-1.0%,22.4%

33. COCCNC(=O)c1ccc(S(=O)(=O)N2CCCc3ccccc32)cc1
34. CCCN1C(=O)C2(c3ccccc31)c1c(oc3ccccc3c1=O)C(=O)N2CCO (configuration not stated)
35. O=C(c1cc(Cl)cc(Cl)c1)N1CCN(c2cc(C(F)(F)F)nc3ccccc23)CC1
36. Cc1ccccc1NC(=O)c1cccnc1
37. CCCn1c(SCC(=O)Nc2ccc(Cl)cn2)nnc1C1CC1
38. CC1=NN(c2ccccc2)C(=O)/C1=C\c1cn(C)c2ccccc12
39. CC(=O)Nc1c2c(nn1-c1ccc(F)cc1)CSC2
40. COc1ccc(/C=C/C(=O)N(C)C2CCS(=O)(=O)C2)cc1 (configuration not stated)
assay / entry,33,34,35,36,37,38,39,40
TRPV1 PAM,-8.1,nt,6.9,-0.6,4.2,-8.4,-9.1,4.2
Sfp PPTase inh,17.8%,nt,3.3%,-1.1%,5.7%,-10.3%,17.7%,nt
Menin-MLL FL inh,2.0,nt,-2.6,-1.6,2.0,1.0,6.5,nt
ClpP mod,nt,-3.3%,?,2.3%,0.9%,-1.7%,-2.0%,nt
TRPML1 agonist,0.6,0.1,1.0,-0.7,-0.2,3.6,3.0,-0.4
TRPML1 blocker,-4.4,1.2,38.9,-6.6,-3.7,59.8,13.5,1.3
PINK1 modulator,-1.3%,-0.2%,3.6%,0.0%,-1.1%,3.2%,0.0%,2.3%

41. S=P(c1ccc(N2CCOCC2)cc1N1CCOCC1)(N1CCOCC1)N1CCOCC1
42. COc1ccccc1N/N=C1\COC(C)(C)CC1=O
43. N#Cc1c(SCC(=O)O)nc(N2CCOCC2)c2c1CCCC2
44. CC(=O)NC(Cc1ccccc1C)C(=O)NC1CCN(C(=O)c2ccc(C)cc2)CC1 (configuration not stated)
45. O=C(CN1CCN(S(=O)(=O)c2cc(Br)ccc2Br)CC1)NCc1ccccc1Cl
46. O=S(=O)(CCOc1ccccc1)N1CCOCC1
47. S=c1[nH]nc(COc2ccccc2)n1/N=C/c1cccc(Br)c1
48. COc1cccc(OC)c1C(=O)Nc1cccc(C(=O)Nc2cccc(C(=O)O)c2)c1
assay / entry,41,42,43,44,45,46,47,48
TRPV1 PAM,-29.7,-1.2,-2.4,-4.8,nt,4.5,14.9,-18.2
Sfp PPTase inh,35.5µM*,17.6%,-4.0%,-0.1%,nt,2.3%,?,5.8%
Menin-MLL FL inh,4.1,1.1,1.4,-4.7,nt,0.4,7.0,1.0
ClpP mod,1.1%,nt,nt,-1.5%,-2.9%,-2.4%,nt,0.5%
TRPML1 agonist,-0.7,1.0,0.3,2.1,2.5,0.4,0.3,0.6
TRPML1 blocker,9.5,-20.2,24.5,10.9,20.7,26.1,-0.2,7.7
PINK1 modulator,0.0%,4.1%,-0.6%,0.8%,-2.0%,-0.1%,9.4%,1.0%

49. CCOc1ccc(CCNC(=O)c2ccc(Cl)c(S(=O)(=O)N3CCOCC3)c2)cc1OCC
50. COc1ccccc1CNC(=O)COC(=O)c1nccnc1N
51. Cn1nnnc1SCCCNCc1cc(Cl)ccc1OCc1ccc(F)cc1
52. CCC(C(=O)NCC1CCCO1)N(Cc1ccc(F)cc1)C(=O)CNS(=O)(=O)c1ccccc1 (configuration not stated)
assay / entry,49,50,51,52
TRPV1 PAM,?,6.5,nt,-1.5
Sfp PPTase inh,nt,0.6%,nt,23.0%
Menin-MLL FL inh,nt,nt,nt,nt
ClpP mod,nt,3.7%,3.1%,nt
TRPML1 agonist,0.3,1.1,2.7,-0.4
TRPML1 blocker,6.2,12.3,47.9,-13.2
PINK1 modulator,2.1%,-0.4%,-0.9%,-1.5%

Bioassay records deposited in PubChem by National Center for Advancing Translational Sciences (NCATS).
